Compound activity deposited in PubChem by SRMLSC.
H5N1 antiviral – MDCK cell protection from H5N1 avian flu | cytopathic effect, luminescence, 72 h; active compounds read high; no value below 0 was filed and about half of the inactive calls have no number; reference of the scale not given here | inhibition, % at 50 µM | hit rate 0.07% among 96,000 | AID 740; in the data active = inhibition above about 25%
Starred values were filed as active, the others as inactive; i = inactive; & = joins results of further samples. This is a subset (hit frequency here may not be typical).

Sample of the layout:
SMILES	H5N1 antiviral
CCc1c(C(=O)N2CCN(c3ccccc3F)CC2)[nH]c(C)c1C(C)=O	i
COc1ccccc1N1CCN(Cc2cccs2)CC1	i
Cc1c(/C=N/NC(=O)c2ccc3c(c2)OCO3)cnn1C	i

The whole of this part (from the top)
SMILES	H5N1 antiviral
CCc1c(C(=O)N2CCN(c3ccccc3F)CC2)[nH]c(C)c1C(C)=O	i
COc1ccccc1N1CCN(Cc2cccs2)CC1	i
Cc1c(/C=N/NC(=O)c2ccc3c(c2)OCO3)cnn1C	i
COc1ccccc1CNC(=O)C1CC(c2c(Cl)cccc2Cl)=NO1 (stereo not drawn)	i
O=C(O)c1cccc(C(=O)Cc2ccccc2)c1	0.9
Cc1ccc(NC(=O)N2CCC(C(=O)NCc3ccc(F)cc3)CC2)cc1	i
COCC(=O)Nc1cccc2ccccc12	i
CC(=O)Oc1ccccc1/C=C1\CCOC1=O	i
Cn1c(Oc2ccc(Cl)cc2)c(C=O)c2ccccc21	i
CCc1c(O)nc(N2CCN(Cc3ccccc3)CC2)[nH]c1=O	0.1
CC(=N\O)/C(CN(C)C)=N/O	0.2
O=C(CC1C(=O)NCCN1C(=S)Nc1ccccc1)Nc1ccc2c(c1)OCCO2 (stereo not drawn)	i
O=C(Cn1c(=O)oc2cc(S(=O)(=O)NCc3ccccc3)ccc21)NCc1ccco1	1.2
O=C(NCc1ccco1)/C(=C/c1cccnc1)NC(=O)c1ccco1	1.5
C=CCc1cccc(CNc2c(C)n(C)n(-c3ccccc3)c2=O)c1O	i
CCCCc1ccc(NC(=S)NCc2cccs2)cc1	i
COc1ccc(C(=O)CSc2n[nH]c(N)n2)cc1	i
Cc1ccccc1Nc1nnc(SCc2cc(=O)n3ccsc3n2)s1	1.8
Cc1ccc(N(CC(=O)Nc2ccc(C)cc2C)S(=O)(=O)N2CCCC2)cc1	0.1
Cc1ccc(CNC(=O)CCNC(=O)c2ccco2)cc1	i
Cc1csc2nc(CSc3nncn3-c3ccccc3)c(Br)n12	2.7
O=C(O)CCCCNS(=O)(=O)c1ccc(Cl)c(C(F)(F)F)c1	i
CCOC(=O)Cc1csc(SCC(=O)Nc2sc3c(c2C(N)=O)CCC3)n1	0.5
COc1ccc(S(=O)(=O)Nc2cc3c4c(oc3c3ccccc23)CCCC4=O)cc1	i
CCC1CCc2sc(C(=O)O)cc2C1 (stereo not drawn)	i
COc1ccc(NC(=O)c2cnc3n(c2=O)CCS3)cc1OC	i
COc1ccc(Oc2nccc(-c3ccc(Cl)cc3)n2)cc1	0.7
Cn1c(Cc2csc(N)n2)nnc1SCC(=O)NCc1ccccc1	i
Cc1cc(S(=O)(=O)NCC(c2ccccc2)c2ccccc2)ccc1-n1cnnn1	2.1
CCOC(=O)c1c(-c2ccc(C)o2)csc1NC(=O)COC(=O)c1cccs1	0.2
C(=NC12CN3CN(CN(C3)C1)C2)c1cccnc1	i
Cc1ccc(C(=O)OC2=CC(=O)CC(C)(C)C2)cc1	0.6
CC(=O)c1c(C(C)=O)c(C)n(-c2ccc(O)cc2)c1C	0.0
COCCCN1C(=O)c2ccccc2C1C(=O)NC1CCCCCC1 (stereo not drawn)	1.0
C=CCOc1ccc(/C(O)=C2\C(=O)C(=O)N(CCCOC)C2c2ccncc2)cc1 (stereo not drawn)	0.4
CC1CC(C)CN(C(=O)CSc2nc(Cc3cccs3)nc3ccccc23)C1 (stereo not drawn)	1.7
Cc1nnc(SCC(=O)N2CCc3ccccc32)n1-c1ccccc1	0.2
COC(=O)Cn1cnc2c(C#N)c3n(c2c1=O)CCCC3	0.4
CC(C)(C)C(=O)N=C1SC2CS(=O)(=O)CC2N1c1ccc2c(c1)OCO2 (stereo not drawn)	3.0
COc1ccc2[nH]c(=O)c(NC(N)=S)nc2c1	i
CN(CC(=O)Nc1ccc(C#N)cc1)Cc1ccc(Cl)c(Cl)c1	0.1
Cc1ccc(C(=O)N/C(=C\c2ccc(Br)cc2)c2nc(=S)[nH][nH]2)cc1	1.8
O=C(NCC1CCCO1)C1CCN(S(=O)(=O)N2CCCC2)CC1 (stereo not drawn)	0.1
O=C1/C(=C\c2ccc(-c3ccccc3Cl)o2)SC(=S)N1CC1CCCO1 (stereo not drawn)	0.7
COc1ccc(OC)c(C(c2nnnn2C2CCCC2)N2CCN(c3ccccc3F)CC2)c1 (stereo not drawn)	i
O=C(O)CCc1nn2c3ccccc3n(CC(=O)c3ccccc3)c2nc1=O	i
CN(C)S(=O)(=O)Oc1ccsc1C(=O)Nc1cccc(Cl)c1	i
O=C(Cn1cnc2c(oc3ccccc32)c1=O)NCc1ccccc1	i
COc1ccnc(Nc2ccc(C)c(C)c2)c1C#N	1.6
CCOc1ccc(CC2c3cc(OCC)c(OCC)cc3CCN2C(=O)c2cc(OC)c(OC)c(OC)c2)cc1OCC (stereo not drawn)	0.1
COC(=O)c1cc(NS(=O)(=O)c2ccc(NC(C)=O)cc2)cc(C(=O)OC)c1	2.2
CCCCN(C)CCCNC(=O)CCn1nc(-c2ccccc2)ccc1=O	0.2
Cc1ccc(C(=O)N2CCN(C(=O)CN3CCCC3)C2)cc1	1.3
CN1CCN(Cc2oc(CO)cc(=O)c2O)CC1	i
Cc1ccc(C)c(N2CCN(CCCNC(=O)Cn3cc4c(n3)CCC(C)C4)CC2)c1 (stereo not drawn)	i
O=c1[nH]nc2c3ccccc3cnn12	i
C=CCNC(=O)CC(=O)N/N=C/c1ccccc1F	0.2
CCOC(=O)C1(C)/C(=N/Nc2cccc(Cl)c2)C(=O)C(=O)N1c1ccccc1 (stereo not drawn)	i
Cc1cc(OCC(=O)Nc2ccc(OCc3ccccc3)cc2)nc(C(C)C)n1	i
CNC(=O)N(O)C1N(C)C(=O)N(Cc2ccccc2)C1(C)C (stereo not drawn)	0.3

Next structures
SMILES	H5N1 antiviral
O=C(COn1nnc2ccc(Cl)cc21)NCc1ccccc1	i
Cc1cc(C)c(C#N)c(N2CCN(Cc3ccccc3)CC2)n1	i
CCNc1nc(NC(C)CC)nc(Oc2ccc(=O)[nH]n2)n1 (stereo not drawn)	i
CC(NC(=O)c1cccc(N2CCCC2=O)c1)c1ccc2c(c1)OCCO2 (stereo not drawn)	i
COc1ccc(N2C(=O)c3ccccc3NC23CCC(C)CC3)cc1 (stereo not drawn)	0.2
Cc1nc(C(F)(F)F)nc(Nc2ccc(Br)cc2)c1C#N	1.8
CC1(C)NC(=O)N(CCOCCOc2ccc3ccccc3c2Br)C1=O	i
COc1ccc(NC(=O)COC(=O)c2cc(OC)c(OC)cc2NC(=O)c2ccco2)cc1OC	i
CCSC1=C(C#N)C(c2ccc(F)cc2)CC(=O)N1 (stereo not drawn)	1.0
CCCC(=O)Nc1ccc2nc(SCC(=O)Nc3nccs3)sc2c1	0.2
COc1ccc(Nc2nc3ccccc3n3cnnc23)cc1	0.6
Cn1c(=O)c2cc(S(=O)(=O)Nc3cccc(F)c3)ccc2n(C)c1=O	2.0

Some values from above.
COc1ccc(N2C(=O)c3ccccc3NC23CCC(C)CC3)cc1 (stereo not drawn) in H5N1 antiviral = 0.2
CCCC(=O)Nc1ccc2nc(SCC(=O)Nc3nccs3)sc2c1 in H5N1 antiviral = 0.2

Reprinted at random: 7 compounds from above.
SMILES	H5N1 antiviral
COc1ccc(Nc2nc3ccccc3n3cnnc23)cc1	0.6
CC(NC(=O)c1cccc(N2CCCC2=O)c1)c1ccc2c(c1)OCCO2 (stereo not drawn)	i
CCSC1=C(C#N)C(c2ccc(F)cc2)CC(=O)N1 (stereo not drawn)	1.0
COc1ccc(N2C(=O)c3ccccc3NC23CCC(C)CC3)cc1 (stereo not drawn)	0.2
O=C(COn1nnc2ccc(Cl)cc21)NCc1ccccc1	i
CCNc1nc(NC(C)CC)nc(Oc2ccc(=O)[nH]n2)n1 (stereo not drawn)	i
CCCC(=O)Nc1ccc2nc(SCC(=O)Nc3nccs3)sc2c1	0.2

Additional structures follow.
SMILES	H5N1 antiviral
CCS(=O)(=O)n1nc(-c2ccc(Cl)cc2)nc1N	2.8
O=C(NCc1ccco1)C1CCN(c2nnc(-n3cccc3)s2)CC1	2.2
CCn1c(COc2ccc3c(c2)OCO3)nnc1SCC(=O)c1ccccc1	1.6
S=c1[nH]nc(C2CCCCC2)n1/N=C/C=C/c1ccccc1	i
COc1ccc(CC(=O)NCc2nnc(SCCOc3ccccc3)n2C)cc1	i
C=CCNC(=O)c1cccn1-c1ccsc1C(=O)OC	i
COc1ccc(NC(=O)c2cc(-c3cccs3)on2)cc1OC	1.4
c1ccc2c(-n3cnnn3)cccc2c1	1.7
CS(=O)(=O)N(Cc1ccc(Cl)cc1)c1ccc(C(=O)NCCSCc2ccco2)cc1	1.5
CCc1nnc(NC(=O)CSc2nccn2-c2cc(C)cc(C)c2)s1	0.1
O=C(O)C1CCCCC1C(=O)Nc1cccc(C(=O)N2CCCCC2)c1 (stereo not drawn)	i
Cc1ccc(NC(=O)CN2CCCN(S(=O)(=O)c3ccc(Br)s3)CC2)cc1	1.7
COc1ccc(Cn2c(=O)[nH]c3cc(C(=O)NCCCN4CCCCC4)ccc3c2=O)cc1	i
COc1cc(SC)ccc1C(=O)NCCOc1ccccc1Cl	0.9
CCc1c(C)nc(SCC(=O)Nc2cccc(Br)c2)[nH]c1=O	i
N#CC(C(=O)NCc1ccccc1)c1nc2ccccc2nc1N1CCCC1 (stereo not drawn)	0.8
CCOc1ccc(CCNC(=O)C2CCN(c3nn4c(=O)cc(C)nc4s3)CC2)cc1OCC	0.2
CC12CCC(C(=O)O)(C/C1=N\O)C2(C)C (stereo not drawn)	0.3&0.2
CC(C)OP(=O)(c1ccc(N(C)C)cc1)C(O)c1ccncc1 (stereo not drawn)	0.3
Cc1cc(=O)[nH]c(SCC(=O)N2c3ccccc3CC2C)n1 (stereo not drawn)	1.3
O=C1CCC(C(=O)NCCCn2ccnc2)N1 (stereo not drawn)	0.9
Cn1c(=O)c(C(=O)c2ccccc2)nc2ccccc21	i
CCC(Sc1nc2ccccc2c(=O)n1CCN1CCOCC1)C(=O)NCc1cccnc1 (stereo not drawn)	1.3
Cc1cc2c(nn1)CCc1nonc1-2	i
Nc1c(C(=O)OCC2CCCO2)c2nc3ccccc3nc2n1C1CCCC1 (stereo not drawn)	i
O=C(CSc1nnc(-c2ccco2)o1)NC(=O)C1COc2ccccc2O1 (stereo not drawn)	i
O=C(CC1(O)C(=O)Nc2ccccc21)c1cccnc1 (stereo not drawn)	i
O=C1NC2(CCCCC2)C(=O)N1c1ccccc1	i
COC(=O)c1ccc(COc2ccc3c4c(c(=O)oc3c2)CCC4)o1	1.4
CN(C)S(=O)(=O)c1cccc(-c2cn3ccccc3n2)c1	0.8
COc1ccc(-n2c(O)c(C(C)=NC3CC3)c(=O)[nH]c2=O)cc1	0.3
O=C(Nc1ccccc1Cl)O/N=C(/c1ccccc1)c1ccccn1	8.9
Cc1cc(/C=C(\C#N)C(=O)Nc2ccccc2)c(C)n1-c1ccc2c(c1)OCO2	i
CCN1C(=O)C2(C(C#N)=C(N)Oc3n[nH]c(-c4ccccc4)c32)c2ccccc21 (stereo not drawn)	i
Nc1nnnn1/N=C/c1ccc(O)cc1	i
CC(=O)c1cc2c(O)c(O)ccc2o1	2.0
Cc1cc(C)c(S(=O)(=O)Nc2ccc[nH]c2=O)c(C)c1	2.3
O=C(CSc1nc2c(c(=O)n1-c1ccccc1)SCC2)N1CCOCC1	2.1
CCCCOC(=O)Cc1c(O)c2ccccc2[nH]c1=O	i
CC(=O)c1ccc(N2CCN(C(=O)c3cc(-c4ccc5c(c4)OCO5)nc4ccccc34)CC2)cc1	1.9
CCCn1ncc(OC)c(Cl)c1=O	i
Cc1ccc(NC(=O)/C(C#N)=C/c2cc(C)n(-c3ccc(N4CCOCC4)c([N+](=O)[O-])c3)c2C)c(C)c1	0.0
Cc1cccc(NC(=O)C2CCN(c3nc(C)cc(C)n3)CC2)c1	i
CC1(C)CC(=O)C2=C(C1)N=C1SCCC(=O)N1C2c1ccccc1 (stereo not drawn)	i
CCOC(=O)c1c(NC(=O)C(c2ccccc2)c2ccccc2)sc2c1C1CCN2CC1	0.6
O=C(Cn1nnc(-c2cc(Cl)ccc2-n2cnnn2)n1)N1CCCc2ccccc21	i
COc1ccc(NC(=O)c2cc3nc(-c4ccccc4)cc(-c4ccccc4)n3n2)c(OC)c1	i
COC(=O)C1=C(C)Nc2c(c(=O)n(C)c(=O)n2C)C1c1cccs1 (stereo not drawn)	0.4
CC(=O)c1c(OCC(=O)O)ccc2c(C)cc(=O)oc12	i
Cc1ccc(/C=C2\SC(=S)N(c3c(C)n(C)n(-c4ccccc4)c3=O)C2=O)cc1	i
CS(=O)(=O)n1nc(-c2ccc(Cl)cc2)nc1SCc1ccccc1	i
COC(=O)\C(C(C)=O)=C(/C=C/C=C/C=C/N(C)C)N(C)C	1.0
CCOC(=O)c1c(C)oc2cc(Br)c(OC)cc12	i
Cc1nnc(SCC(=O)Nc2ncc(Cc3ccc(F)cc3)s2)n1N	i
C=CCN(CC=C)S(=O)(=O)c1ccc(NC(=S)NC(=O)Cc2ccc(OC)cc2)cc1	i
Cc1ccccc1C(=O)O/N=C1\CCS(=O)(=O)c2sccc21	i
COc1ccc(Nc2nc(N)nc(CN3CCc4ccccc4C3)n2)cc1	0.1
Cc1cccc(Cc2c(C)nc3nc(SCC(=O)NCc4ccco4)nn3c2C)c1	i
CCOC(=O)N1CCC(NC(=O)c2cnn3ccccc23)CC1	2.4
O=C1c2cccnc2Nc2ccccc2N1CCCF	2.5
COc1ccc(OC)c(NC(=O)CS(=O)(=O)c2ccccc2)c1	0.4
O=C(OCC(=O)c1cccs1)c1ccc(NC(=O)c2ccco2)cc1	i

For convenience, 2 of the compounds above:
SMILES	H5N1 antiviral
CCc1c(C(=O)N2CCN(c3ccccc3F)CC2)[nH]c(C)c1C(C)=O	i
COc1ccccc1N1CCN(Cc2cccs2)CC1	i
